# Screening data as filed in PubChem.
# A1 inh: caspase 3/7 activation in MEF A1-2A-BIM cells, primary screen, A1 inhibitor project, cell-based, luminescence, HTS; Caspase-Glo 3/7 luminescence, 3 h; percent of clofoctol response, vehicle zero; caspase activation, % (test concentration not listed); 330,000 compounds, 0.066% hits;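 active means over half of replicate activation scores above 10%, or exactly half above 10 with the replicate mean above 10; inconclusive means replicate mean below 10 yet half the replicates above 10; inactive means over half of replicates below 10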;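 further: wells of about 30 µL received 50 nL stock; many hits fall short of the cut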
# B2AR ag: beta2AR agonists driving receptor internalization, primary screen, cell-based, FAP fluorogen, flow cytometry; 340,000 compounds, 0.43% hits; AID 504454, 2011; response, % (test concentration not listed); Am2.2-beta2AR cells; reference of the scale not given here; Beta-2 adrenergic receptor (Homo sapiens), P07550;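 active means response above a set limit, near 3 SD of response in nonfluorescent compounds, cut at about 42% in these data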;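 further: stock transfer was 100 nL into about 11 µL; a reference agonist was the positive control; negative values mostly stem from fluorescent compounds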
# Target sequence (P07550 whole entry, looked up): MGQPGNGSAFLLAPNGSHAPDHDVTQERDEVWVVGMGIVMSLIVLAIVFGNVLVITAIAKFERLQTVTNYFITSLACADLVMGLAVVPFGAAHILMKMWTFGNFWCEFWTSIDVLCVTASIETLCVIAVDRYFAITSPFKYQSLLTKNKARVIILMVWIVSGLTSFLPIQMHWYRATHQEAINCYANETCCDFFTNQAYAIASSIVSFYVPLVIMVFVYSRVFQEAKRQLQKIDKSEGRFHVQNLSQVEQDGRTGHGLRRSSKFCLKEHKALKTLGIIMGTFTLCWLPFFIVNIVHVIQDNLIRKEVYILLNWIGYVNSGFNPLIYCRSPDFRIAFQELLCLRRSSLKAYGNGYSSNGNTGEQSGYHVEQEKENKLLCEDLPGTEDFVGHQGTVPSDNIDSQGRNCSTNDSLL
# Ecoli rRNA inh: reduced GFP signal of wild-type E. coli, primary screen, bacterial rRNA inhibitor project, GFP/RFP fluorescence, OD600, single point; AID 720706, 2013; 350,000 compounds, 1.6% hits; E. coli WT GFP vs humanized-ribosome RFP mutants, 24 h; hits give low values; DMSO median 0, no signal -100; GFP signal change (wild-type ribosome), % (test concentration not listed);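 active means significant combined selectivity score with lowered wild-type GFP, culture density cut under 30%, mutant RFP and density less affected; inactive means any of these conditions unmet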; further: one replicate is shown; some compounds called inactive have numbers as strong as hits
# T cruzi repl: inhibitors of intracellular T. cruzi growth, primary screen, luminescence, NIH3T3 host cells | T. cruzi beta-gal in NIH3T3, 90 h | 300,000 compounds, 1.4% hits | inhibition, % (no concentration beside the values);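 active means mean inhibition across valid replicates above about 55%, limit read from the data; inconclusive means mean below that limit but half or more replicates reach it; inactive means mean below it, under half of replicates reach it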;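 further: signal also drops with host cell toxicity which is not excluded here; 0% = plate median of DMSO wells and 100% = zero luminescence signal; higher percent means less beta-gal luminescence so fewer parasites; stock transfer was 50 nL into about 50 µL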
# Calb FLC: C. albicans growth inhibition with fluconazole, primary screen, CaCi-2 strain, Alamar Blue fluorescence | C. albicans CaCi-2 (fluconazole-resistant clinical isolate) + fluconazole, 48 h | growth inhibition, % (no concentration beside the values) | 300,000 compounds, 0.57% hits | AID 1979, 2009;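 active means most replicates above 75%; inconclusive means exactly half above 75%; inactive means most below 75%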;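 further: all wells also contain fluconazole at 8 µg/ml as a sub-toxic cotreatment; 0% = median of DMSO wells and 100% = median of geldanamycin control wells; wells of about 8 µL received 7.5 nL stock; the first replicate is given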
# Beta cell apopt: inhibitors of cytokine-induced beta cell apoptosis, primary screen, luminescence; INS-1E cytokine-induced death, ATP luminescence, 48 h; percent of positive-control rescue, neutral wells zero; protection from apoptosis, % (test concentration not listed); 300,000 compounds, 0.8% hits;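 active means all replicates at 75% or more, or half of them and the mean; inconclusive means half reach 75% but not the mean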;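 further: 0% = cytokine-treated negative control wells and 100% = positive control rescue; higher means more ATP so stronger rescue from cytokine killing; wells of about 40 µL received 100 nL stock; the first replicate is given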
# ALR H2O2 inh: inhibitors of human ALR sulfhydryl oxidase, primary screen, biochemical, H2O2 detection, HRP-luminol luminescence, single point; FAD-linked sulfhydryl oxidase ALR (Homo sapiens), P55789; purified ALR, DTT oxidation; inhibition, % (test concentration not listed); 290,000 compounds, 3.8% hits; AID 485317, 2010;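 active means mean and each replicate at 75% or more; inconclusive means only one of the two met; inactive means neither met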;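 further: stock transfer was 7.5 nL into about 7.5 µL; 0% = neutral wells and 100% = wells with inactivated enzyme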
# Target sequence (P55789 whole entry, looked up): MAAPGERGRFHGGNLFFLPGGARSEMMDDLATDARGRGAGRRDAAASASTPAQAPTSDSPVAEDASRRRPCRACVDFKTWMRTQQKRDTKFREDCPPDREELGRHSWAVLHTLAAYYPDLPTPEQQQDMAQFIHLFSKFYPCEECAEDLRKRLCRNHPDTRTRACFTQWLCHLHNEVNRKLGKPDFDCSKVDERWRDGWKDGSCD
# LANA-H2A inh: blockers of LANA interaction with H2A/H2B – biochemical, FP readout, HTS, primary screen | AID 2629, 2010 | 320,000 compounds, 0.6% hits | Protein LANA1 (Human herpesvirus 8 type P (isolate GK18)), Q9QR71 | cell-free LANA-H2A/H2B peptide, fluorescence polarization | inhibition, % (concentration not given with the values); in the data active means inhibition mostly above about 10%, no sharp cut-off; inactive means mostly below about 6.7%;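 further: stock transfer was 7.5 nL into about 10 µL; 0% = median of vehicle wells and 100% = median of positive control wells; one replicate is shown; the record names a cut of 25% in any replicate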
# Ecoli rRNA inh OD600: second read-out of Ecoli rRNA inh, no call of its own (marks repeat the call); OD600 change, %; measured here: OD600 growth;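 optical density of the mix in the first replicate; 0 = DMSO median and -100 = no signal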
# Ecoli rRNA inh RFP: further read-out of Ecoli rRNA inh, marked with its call; RFP signal change, %; measured here: RFP humanized mutant strains;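 first replicate; 0 = DMSO median and -100 = no signal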
# An asterisk follows results filed as active; ? = inconclusive; . = no result given. The list is partial; rates above refer to the full screens.
SMILES,A1 inh,B2AR ag,Ecoli rRNA inh,Ecoli rRNA inh OD600,Ecoli rRNA inh RFP,T cruzi repl,Calb FLC,Beta cell apopt,ALR H2O2 inh,LANA-H2A inh
CCN1CCN(CC(=O)N/N=C/c2cc(Br)cs2)CC1,-0.2,0,10,15,1.0,-18,-5,-4,-1,1.0
Cc1ccc(S(=O)(=O)NC(CC(C)C)C(=O)Nc2ccncc2)cc1 (centres undefined),0.4,4,0,-4,-0.1,6,7,2,-4,0.0
Cc1ccc(S(=O)(=O)N2CCOCC2)cc1C(=O)OCC(=O)NCCc1ccc(F)cc1,0.2,9,-8,-10,2.5,.,.,4,-8,-4.2
N#CC1CC(c2ccccc2)=NN1c1ccccc1[N+](=O)[O-] (centres undefined),0.0,-15,-34,-43,-13,8,85*,-3,-9,-0.9
COc1cc(C(O)c2nc3ccccc3n2C)cc(OC)c1OC (centres undefined),-0.3,9,.,.,.,-3,-11,.,-5,-0.9
Cc1occc1C(=O)N1CCCc2ccccc21,0.0,10,.,.,.,7,0,-4,0,-1.5
O=S(=O)(c1ccc(NC(=S)N2CCN(c3ccc(O)cc3)CC2)cc1)N1CCOCC1,-0.3,11,-2,-2,-3.0,-17,-6,8,99*,0.2
O=C(NCC(c1cccnc1)N1CCN(c2ccc(F)cc2)CC1)c1ccco1 (centres undefined),0.0,6,5,0,-2.3,60*,3,-5,92*,-1.9
Cc1cccc(NC(=O)Cn2c([N+](=O)[O-])cnc2C)c1C,1.1,.,.,.,.,-9,-15,-12,.,4.8
Cc1c(C(=O)NCc2ccccc2)oc2ccc(S(=O)(=O)N3CCC4(CC3)OCCO4)cc12,0.3,6,.,.,.,8,3,2,-3,2.6
N#Cc1ccccc1Cn1c(=O)oc2ccccc21,1.6,7,5,3,-2.7,-6,-14,-2,-12,0.4
O=C(O)C1C(C(=O)Nc2ccc(Cl)cc2)C2C=CC1C21CC1 (centres undefined),0.6,7,.,.,.,-4,6,-3,-4,-4.0
Cc1cc(C)cc(NC(=O)N2CCC(NC(=O)c3ccccc3C)CC2)c1,-0.9,-9,.,.,.,4,-3,-9,5,-0.8
O=C(Nc1ccccc1)OCc1cncs1,-2.2,-3,9,11,-1.0,0,-16,1,-2,0.5
CCCC(NC(=O)Cc1c(C)c2cc3c(C)c(C)oc3c(C)c2oc1=O)C(=O)N[C@@H](Cc1ccccc1)C(=O)O (some centres undefined),-0.6,-8,.,.,.,14,11,.,-14,0.9
Cc1ccc(NC(=O)COC(=O)CN2C(=O)NC3(CCCC3)C2=O)cc1S(=O)(=O)N(C)C,0.3,-3,3,-3,2.3,-14,14,1,-5,0.1
C=CCSC(=S)Nc1c(C)n(C)n(-c2ccccc2)c1=O,-0.4,2,6,4,1.4,-22,-7,-14,70,-1.4
O=C(O)[C@@H]1CCCN1S(=O)(=O)c1cccc(S(=O)(=O)N2CCC[C@H]2C(=O)O)c1,1.7,2,21,16,9.5,-8,1,-7,-16,-5.7
COc1cc(NS(=O)(=O)c2ccc(NC(=O)c3ccc(Cl)cc3Cl)cc2)ncn1,1.0,-1,4,12,0.5,5,0,1,1,-0.3
O=C(CCSCCC(=O)NCc1ccc(F)cc1)NCc1ccc(F)cc1,0.5,1,.,.,.,-10,-9,-7,-2,-2.0
OCC1(Cc2ccccc2)CCN(Cc2cccc(F)c2F)CC1,-0.3,11,4,7,-1.6,-6,-11,-2,-4,5.1
Cc1ccc2nc(NCCC(=O)O)nc(-c3ccccc3)c2c1,-0.7,1,13,20,-1.3,16,6,7,.,-0.1
COc1ccc(CN/C(C)=C(/C#N)C(N)=O)cc1OC,-0.3,0,.,.,.,5,0,2,.,-0.9
Cc1ccc(N2CCN(/N=C/C=C/c3ccccc3)CC2)cc1,-0.4,5,.,.,.,-38,10,-5,-1,-0.3
Cc1c(Cl)cnc(NC(=O)COC(=O)CCC(=O)c2cccs2)c1Cl,.,4,-1,-10,7.0,-10,3,.,.,.
# (more compounds)
SMILES,A1 inh,B2AR ag,Ecoli rRNA inh,Ecoli rRNA inh OD600,Ecoli rRNA inh RFP,T cruzi repl,Calb FLC,Beta cell apopt,ALR H2O2 inh,LANA-H2A inh
O=S(=O)(NCc1ccco1)c1ccc(S(=O)(=O)N2CCCC2)cc1,-0.2,-1,12,7,-1.5,-2,3,1,-2,-2.3
COc1ccc2cc(-c3ccn[nH]3)ccc2c1,-4.4,9,-2,-10,-1.0,12,-1,.,.,1.4
Cc1ccc(NC(=O)C2CCCN(S(=O)(=O)c3c(C)noc3/C=C/N(C)C)C2)c(C)c1 (centres undefined),0.4,5,13,4,-2.0,15,-2,-3,1,3.5
FC(F)(F)c1ccccc1CNCc1ccc2c(c1)OCO2,0.3,-9,8,3,1.9,-3,-12,-11,-15,-0.8
CC1(C)Cc2c(c(=S)nc(-c3ccccc3)n2CCO)CO1,0.3,-1,.,.,.,-12,37,-11,-5,-5.3
CCOc1ccccc1C1CC(=O)NC2=C1C(=O)CCC2 (centres undefined),1.3,-4,.,.,.,-20,0,-2,-13,-3.0
COC(=O)CSc1nnc(CNC(=O)Cc2ccccc2)n1-c1ccccc1OC,-0.2,-1,8,10,-1.6,.,.,.,.,0.9
CCOC(=O)CNC(=S)N(Cc1ccccc1)Cc1ccccc1F,0.5,23,-34*,-18*,2.2*,-4,2,0,-6,2.1
O=C(Cc1ccsc1)OCC(=O)c1ccccc1,-1.3,-2,11,0,2.7,.,.,-6,3,-0.8
N/C(=N\OC(=O)C1CCCCC1)c1cccc([N+](=O)[O-])c1,1.1,8,.,.,.,-6,-7,1,2,15*
CC(C)=CCCC(C)CN1CCC(n2nccc2NC(=O)c2ccccc2)CC1 (centres undefined),-0.8,9,10,1,2.5,33,19,2,-1,-5.1
CN1N=C(c2ccc(Cl)cc2)CC(c2ccc(Cl)cc2)C1=O (centres undefined),-0.3,-6,-33,-52,2.6,19,-10,-17,.,1.5
COc1cc(C(=O)N2C(=O)c3cccc(N)c3C2=O)cc(OC)c1OC,0.4,-4,16,8,1.0,-7,26,-4,.,.
CCOc1cc2[nH]c(=S)n(CCCN3CCOCC3)c(=O)c2cc1OCC,0.6,7,.,.,.,-16,2,-7,50,2.3
CC(C)[C@@H](C(=O)N1CCCC1)N1C(=O)N2CCc3c([nH]c4ccccc34)[C@@]2(C)C1=O,0.6,0,9,10,0.0,13,-4,-2,-1,2.4
COc1ccccc1C(=O)NCCC(=O)NCC(c1ccccc1)N(C)C (centres undefined),-0.4,0,12,7,-2.5,-1,-1,-4,-3,0.2
CCOC(=O)c1c(C)[nH]c(C=C2C(=O)CCCC2=O)c1O,0.4,-4,.,.,.,-10,23,2,2,-5.0
S=c1[nH]nc(-c2cccnc2)n1/N=C/c1ccccc1,1.3,6,4,-5,-1.3,-6,-2,-9,.,7.3
COC(=O)c1ccc(C)c(NC(=O)CCCN2C(=O)NC(C)(C)C2=O)c1,0.2,-5,5,0,-0.8,.,.,1,-5,-2.7
O=C(CSc1nnc(-c2ccc(Cl)cc2)n1-c1ccc(Cl)cc1)N/N=C/c1ccccc1C(=O)O,1.8,.,.,.,.,9,-4,-3,24,1.9
Cc1nn(CCc2n[nH]c(=S)n2-c2ccc(F)c(Cl)c2)c(C)c1[N+](=O)[O-],-0.3,0,.,.,.,7,?,-4,92*,-7.0
O=C(N/N=C\c1cccc(F)c1)c1ccc(Cn2cc(Br)c([N+](=O)[O-])n2)o1,0.6,-1,3,5,-1.2,68*,8,-8,-1,-9.0
C=CCC[C@@H](Cc1ccc(F)cc1)C(=O)OC[C@H](Cc1c[nH]c2ccccc12)NC(=O)[C@@H](CC=C)CC(=O)NCCO,0.6,2,-24,-33,4.3,.,.,-1,-2,5.6
CC(C)Oc1ccc(C2CC(=O)N(c3cccc(Br)c3)C2=O)cc1 (centres undefined),-0.3,12,-17,-6,-0.6,-22,3,-2,-21,-0.2
CC(=O)c1cccc(NC(=O)C2=CC(c3cccs3)=NS(=O)(=O)N2C)c1,-1.7,-18,-20*,-12*,1.4*,4,0,1,2,-2.3
Cc1cccc(OCCOCCN2CCOCC2)c1C,-0.1,6,9,1,-6.1,5,-1,-11,-1,-3.5
O=C(CN1CCN(Cc2cccc(Cl)c2)C1=O)NCc1cccs1,0.0,1,1,3,-2.7,-11,-3,3,0,-2.5
Cn1c(N)c(C(=O)COC(=O)c2ccccn2)c(=O)n(C)c1=O,0.2,3,11,11,-15,4,4,-4,-9,4.2
CC(C)C(=O)c1cn(CC(=O)O)c2ccccc12,-0.3,1,9,2,2.1,-16,-1,-9,-4,1.1

# Entries of single compounds from above. Screens in order: A1 inh	B2AR ag	Ecoli rRNA inh	Ecoli rRNA inh OD600	Ecoli rRNA inh RFP	T cruzi repl	Calb FLC	Beta cell apopt	ALR H2O2 inh	LANA-H2A inh
# Cc1nn(CCc2n[nH]c(=S)n2-c2ccc(F)c(Cl)c2)c(C)c1[N+](=O)[O-] reads -0.3	0	.	.	.	7	?	-4	92*	-7.0
# O=C(Cc1ccsc1)OCC(=O)c1ccccc1 reads -1.3	-2	11	0	2.7	.	.	-6	3	-0.8
# CC(C)=CCCC(C)CN1CCC(n2nccc2NC(=O)c2ccccc2)CC1 (centres undefined) reads -0.8	9	10	1	2.5	33	19	2	-1	-5.1
# CCOC(=O)c1c(C)[nH]c(C=C2C(=O)CCCC2=O)c1O reads 0.4	-4	.	.	.	-10	23	2	2	-5.0
# CC(C)[C@@H](C(=O)N1CCCC1)N1C(=O)N2CCc3c([nH]c4ccccc34)[C@@]2(C)C1=O reads 0.6	0	9	10	0.0	13	-4	-2	-1	2.4

# Taken from above.
# CCOC(=O)c1c(C)[nH]c(C=C2C(=O)CCCC2=O)c1O | Calb FLC: 23
# Cc1nn(CCc2n[nH]c(=S)n2-c2ccc(F)c(Cl)c2)c(C)c1[N+](=O)[O-] | T cruzi repl: 7
# Cc1cccc(OCCOCCN2CCOCC2)c1C | Ecoli rRNA inh: 9
